GALR2 agonist: agonists of human galanin receptor 2 (GALR2); 0.48% of 140,000 active; GALR2-expressing cells, agonist activation read-out; activation, %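 (tested at 5 µM)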; O43603;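 active = above mean plus 3 SD of all compounds, about 5% in these data, not always enough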;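 note: 0% = vehicle buffer wells and 100% = reference agonist at full effect; tested in CHO reporter cells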
Target sequence (O43603 whole entry, looked up): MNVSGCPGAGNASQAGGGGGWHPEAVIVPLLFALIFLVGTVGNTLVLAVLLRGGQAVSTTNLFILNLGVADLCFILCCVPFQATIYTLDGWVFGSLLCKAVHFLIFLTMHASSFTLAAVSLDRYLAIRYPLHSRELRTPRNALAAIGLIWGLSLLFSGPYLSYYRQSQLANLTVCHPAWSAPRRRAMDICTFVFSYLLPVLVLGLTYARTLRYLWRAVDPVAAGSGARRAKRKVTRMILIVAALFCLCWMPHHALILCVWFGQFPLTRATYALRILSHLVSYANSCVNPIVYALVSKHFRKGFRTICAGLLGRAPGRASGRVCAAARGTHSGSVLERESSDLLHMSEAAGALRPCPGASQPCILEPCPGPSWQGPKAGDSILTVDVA
PKD1 kinase inh: blocks activity of human protein kinase D1 | Q15139 | PKD1 kinase fluorescence polarization assay | inhibition, %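 (about 10 µM by stock and volumes)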 | 0.056% of 200,000 active | AID 797;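 active = inhibition of 50% or more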;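 note: controls were vehicle for no effect and a reference inhibitor for full effect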
RGS16-Gao: RGS16-Galphao interaction regulator (human); 0.38% of 220,000 active; binding response (% of control), % at 10 µM; O15492+P09471; bead-based flow cytometry RGS16-Galphao binding, fluorescence; actives lie on both sides;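 active = below 25% or above 175%, edge rows of some plates excepted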;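 note: Galphao activated by GDP with aluminum fluoride before binding; 100% = wells without compound and 0% = beads without RGS; some results beyond the cut were filed as inactive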
Target sequence (O15492 whole entry, looked up): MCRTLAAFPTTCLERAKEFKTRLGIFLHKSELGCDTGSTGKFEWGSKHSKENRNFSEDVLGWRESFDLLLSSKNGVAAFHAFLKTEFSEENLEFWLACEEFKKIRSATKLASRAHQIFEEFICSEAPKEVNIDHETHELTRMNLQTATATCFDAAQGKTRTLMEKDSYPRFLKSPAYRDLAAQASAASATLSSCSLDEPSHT
Target sequence (P09471 whole entry, looked up): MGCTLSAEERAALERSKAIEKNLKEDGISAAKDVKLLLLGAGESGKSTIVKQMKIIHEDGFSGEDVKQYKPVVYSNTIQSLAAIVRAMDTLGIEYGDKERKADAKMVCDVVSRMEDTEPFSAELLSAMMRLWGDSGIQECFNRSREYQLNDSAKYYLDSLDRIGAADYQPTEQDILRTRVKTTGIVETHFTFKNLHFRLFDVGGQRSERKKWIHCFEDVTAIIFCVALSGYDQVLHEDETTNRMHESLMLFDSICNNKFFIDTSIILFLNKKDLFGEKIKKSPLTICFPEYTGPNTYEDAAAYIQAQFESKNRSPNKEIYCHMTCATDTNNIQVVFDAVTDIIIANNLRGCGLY
HSV replic up: increases HSV replication in cells. HSV replication augmentation in cells, fold increase. 0.005% of 220,000 active. maximum fold increase. AID 1956;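 active = peak rise of 1.5-fold or more in the series; inconclusive = self-fluorescent or not available for retest; tested in PC3 cells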;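 note: first round at 10 µM; read as green reporter fluorescence; hits show the peak of a series up to 25 µM; 1 = signal of infected wells without compound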
INS promoter inh: TRM-6 insulin promoter activity inhibition; 0.9% of 130,000 active; AID 1273; TRM-6 cells (human fetal islet line), insulin promoter-eGFP reporter, imaging; reporter expression induced with tamoxifen; inhibition, % at 2 µM;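 active = inhibition above the mean plus 3 SD, with well images judged a real hit on visual review, cut at about 60% in these data, passing the limit was not always enough; inconclusive = inhibition over the cutoff but images rejected on review; inactive = inhibition not above the cutoff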
INS promoter inh cell count: recorded beside INS promoter inh, whose call it bears; normalized cell count, %; measured here: cell count, toxicity; reference of the scale not given here;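 cells exposed to compound for 48 h; stained nuclei by imaging scaled within each plate; lower means fewer cells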
HSV replic up primary fold: also measured in HSV replic up; calls as there; fold increase; compound at 10 µM; measured here: primary screen fold increase 10 uM; tested in PC3 cells;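 GFP signal in the first replicate; 1 = infected wells without compound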
Numbers without * were called inactive; i = inactive; ? = inconclusive; nt = no result given; & = joins results of further samples.

SMILES	GALR2 agonist	PKD1 kinase inh	RGS16-Gao	HSV replic up	HSV replic up primary fold	INS promoter inh	INS promoter inh cell count
Cc1ccc(N(C)C(=O)Oc2ccc(C(=O)c3ccc(Cl)cc3)cc2)cc1	0.2	-8	109	i	0.97	-50	60
O=C(c1cccc2ccccc12)C1CCCN(C2CCC2)C1 (centres undefined)	nt	0	97	i	0.86	nt	nt
Clc1ccc(C2N3CCCN23)c(Cl)c1 (centres undefined)	-1.6	3	44	i	1	-3	40
CCn1c(O)c(C=Nc2ccc(S(N)(=O)=O)cc2)c(=O)n(CC)c1=S	0.2	1	128	i	1.2	-50	98
CN1CCC(N2CC3CC(C2)c2cccc(=O)n2C3)CC1 (centres undefined)	-0.3	0	80	i	0.88	nt	nt
O=C(O)c1ccc(Cl)nc1	-0.6	-2	102	i	1	-3	115
CN(C)c1ccc(/C=C/C=C2/C(=O)NC(=O)N(c3ccccc3)C2=O)cc1	nt	-8	93	nt	nt	nt	nt
CCn1cc(C(=O)N2CCC3(CC2)OCCO3)c(=O)c2cc(S(=O)(=O)N3CCCC3)ccc21	-2.4	5	105	i	0.99	19	92
CCOP(=O)(OCC)C(O)c1ccc2c(c1)OCO2 (centres undefined)	nt	nt	95	i	1.1	nt	nt
CCOC(=O)c1ccc(N=Cc2c(O)n(-c3ccc(OC)cc3)c(=S)[nH]c2=O)cc1	nt	0	99	i	1	17	140
Cc1ccc(-n2c(O)c(C=NCC3CCCO3)c(=O)[nH]c2=O)c(C)c1 (centres undefined)	nt	nt	106	i	0.96	nt	nt
CC(C)CNP(=S)(c1ccccc1)C(C)(C)C (centres undefined)	nt	nt	87	i	1.2	nt	nt
O=c1[nH]c(=O)n(Cc2ccco2)c(O)c1C=NCCN1CCOCC1	-5.7	2	95	i	0.99	nt	nt
COc1cccc(C(=O)C2CCCN(Cc3ccon3)C2)c1 (centres undefined)	nt	5	142	i	1	9	43
COP(=O)(OC)C(NC(=O)/C=C/c1ccccc1)C(Cl)(Cl)Cl (centres undefined)	nt	-7	92	i	0.87	-3	98
O=C(Cc1ccccc1)Oc1cccc(-n2cnnn2)c1	nt	-4	102	i	0.98	nt	nt
CCOC(=O)N(CC)c1ccc(C(O)(C(=O)OCC)C(F)(F)F)cc1 (centres undefined)	-2.8	6	102	i	0.96	-93	63
Cc1ccsc1C(=O)C1CCCN(Cc2cnc(N)nc2)C1 (centres undefined)	nt	nt	107	i	0.82	nt	nt
Cc1c(C(c2ccc(O)cc2)c2c(O)c3ccccc3oc2=O)c(=O)n(-c2ccccc2)n1C (centres undefined)	-1.4	3	105	i	0.91	7	81
CCCN(CC#CCOc1ccc(OC)cc1)CCC	-2.3	-10	98	i	1	43	139
COc1cc(NC(=O)CN2C3CCC2CC(O)(c2cccnc2)C3)cc(OC)c1 (centres undefined)	-2.1	-8	100	i	0.88	14	89
Cn1cccc1/C=C1/C(=O)NC(=O)N(C(C)(C)C)C1=O	nt	nt	102	i	1	nt	nt
Oc1ccc(Br)cc1CN1CCN(c2ccccc2)CC1	-0.6	-13	100	i	0.89	-20	119
COC(=O)C(O)(c1ccc(N(C)C(=O)OC(C)C)cc1)C(F)(F)F (centres undefined)	-2.4	-9	102	i	0.88	-47	73
CN1CCN(c2cn[nH]c(=O)c2Cl)CC1	nt	-2	98	i	0.9	nt	nt

Following part:
SMILES	GALR2 agonist	PKD1 kinase inh	RGS16-Gao	HSV replic up	HSV replic up primary fold	INS promoter inh	INS promoter inh cell count
COc1ccc(N2C(=O)/C(=C/C=C/c3ccccc3[N+](=O)[O-])C(=O)NC2=S)cc1	nt	5	47	i	1.1	0	84
CN(C)c1ccc(/C=C2/C(=O)NC(=O)N(CCc3ccc(F)cc3)C2=O)cc1	0.3	-5	101	i	1.1	-19	90
CCc1c(C)nc(N)nc1N1N=C1SCC(N)=O	-1.9	-5	100	i	0.98	22	117
COc1ccc(C(=O)C2CCCN(Cc3ccon3)C2)cc1OC (centres undefined)	nt	4	94	i	0.8	nt	nt
Cc1ccccc1C(=O)NC(Oc1ccccc1)C(Cl)(Cl)Cl (centres undefined)	-1.2	-7	86	i	1.1	12	128
NCCc1c[nH]c2ccccc12	0.8	-5	108	i	1	-5	105
Cc1cc(NCCN)nc2ccccc12	-3.3	2	102	nt	nt	-11	149
Cc1cc(Cl)ccc1OCCCC(=O)NCc1cccs1	-2.6	-6	95	i	0.94	-8	73
OC1/C(=C/c2ccc(F)cc2)N2CCC1CC2 (centres undefined)	-1.2	-7	112	i	0.96	0	110
CN1CCN(c2ccc(F)cc2N)CC1	nt	-9	106	i	0.96	-91	38
O=C(C1CC(=O)N(C2CCCCCCC2)C1)N1CCC2(CC1)OCCO2 (centres undefined)	-3.3	3	95	i	0.94	74*	89*
CC(=O)Nc1ccccc1OP1(=O)COc2ccccc2OC1	-3.1	-8	100	i	0.97	77*	40*
CS(=O)(=O)N1CCCC(C(=O)N2CCC3(CC2)OCCO3)C1 (centres undefined)	-2.8	-6	98	i	1.1	nt	nt
Cc1nn(Cc2ccccc2Cl)c(C)c1C(=O)OCC(=O)N1CC(C)OC(C)C1 (centres undefined)	-0.8	0	106	i	1.1	nt	nt
Cc1c(N)c(C)c([N+](=O)[O-])c(C)c1[N+](=O)[O-]	nt	6	99	i	0.95	nt	nt
CN(CC(=O)Nc1ccccc1-c1ccccc1)C1CCCCC1	0.4	3	97	i	0.98	nt	nt
O=C1N(c2cccc(Cl)c2)C(c2cccnc2)N2CCCN12 (centres undefined)	nt	-4	100	i	1.1	-35	101
CN(C)C(=O)Oc1ccc(Cl)c2cccnc12	nt	-4	29	i	0.99	40	86
Cc1c(C=O)c2ccccc2n1Cc1cccc(F)c1	-0.3	-4	108	nt	nt	8	89
CCOC(=O)c1c(C)n(Cc2ccccc2)c2ccc(OCC(O)Cn3nc(C)cc3C)cc12 (centres undefined)	-0.4	-1	101	i	0.89	15	55
OC12ONC(c3ccccn3)C1N1CCC2CC1 (centres undefined)	-0.8	3	96	i	1.1	-108	40
CC(=O)c1ccc2c(c1)C1C(Cl)C(Sc3ccccc3[N+](=O)[O-])CC1C(c1ccccc1[N+](=O)[O-])N2 (centres undefined)	-2.9	0	98	i	0.98	31	106
O=P(O)(O)C12CC3CC(CC(C3)C1)C2	-2.9	-9	102	i	0.94	15	117
CCOC(=O)C1(CCc2ccccc2)CCN(Cc2cccc3c2OCO3)CC1	nt	0	103	i	0.96	nt	nt
Cc1cc([N+](=O)[O-])c2ccccc2[n+]1[O-]	nt	nt	50	i	0.62	nt	nt

Additional entries follow:
SMILES	GALR2 agonist	PKD1 kinase inh	RGS16-Gao	HSV replic up	HSV replic up primary fold	INS promoter inh	INS promoter inh cell count
CCN1C(=O)C(=Cc2ccc(C)s2)C(=O)N(CC)C1=S	-1.7	1	103	i	1.2	14	130
CCCCn1c(O)c(/C(CC)=N/N2CCCCC2c2cccnc2)c(=O)[nH]c1=S (centres undefined)	-0.2	-6	90	i	0.88	-47	89
CCOc1ccc(-n2c(O)c(C=NCCN3CCNCC3)c(=O)[nH]c2=O)cc1	-2.5	-8	102	i	0.96	-9	106
CCC1CCCCN1P(=O)(c1ccc(C)o1)C(C)(C)C (centres undefined)	-0.6	5	99	i	0.97	7	72
Cn1cc(NC(=O)CCl)cn1	nt	3	101	i	0.96	nt	nt
CCN(C(=O)Oc1ccccc1)c1ccc(C(O)(C(=O)OC)C(F)(F)F)cc1 (centres undefined)	-0.5	-4	83	i	1	40	93
O=c1[nH]c(=O)n(Cc2ccco2)c(O)c1/C=N/N1CCCCC1	-0.7	-9	98	i	1	nt	nt
CNC(=O)Oc1cccc2ccccc12	nt	nt	101	i	1.1	nt	nt
O=c1cccc2n1C[C@H]1C[C@@H]2CN2CCCC[C@@H]12	nt	nt	100	i	1	nt	nt
CC(=O)N1N=C(c2c(O)n(C)c(=O)n(C)c2=O)CC1c1ccccc1 (centres undefined)	nt	nt	100	i	0.97	nt	nt
COP(=O)(OC)C(NC(=O)c1ccc(C)cc1)C(Cl)(Cl)Cl (centres undefined)	nt	-4	102	i	0.94	79*	102*
CN(C)C1=NP(N(C)C)(N(C)C)=NC(c2ccccc2)=N1	-1.4	-5	95	i	0.85	-79	117
Cc1nnc2ccc(N3CCN(C)CC3)nn12	-2.6	6	452	i	0.85	nt	nt
O=C(Cc1cccs1)N1CCC2(CC1)OCCO2	-0.9	-12	98	i	0.88	25	123
COc1ccc(C(=O)OC2CC[C@@]3(C)C4CCC5[C@]6(O)CC(O)[C@@]7(O)C(CN8CC(C)CCC8[C@@]7(C)O)[C@]6(O)C[C@@]53O[C@]24O)cc1OC (some centres undefined)	nt	nt	130	i	0.95	nt	nt
Cc1cc(NC(=O)COC(=O)c2c(C)nn(Cc3ccccc3Cl)c2Cl)no1	-1.8	-7	99	i	0.74	-55	110
CCC(COC(=O)c1cc(OC)c(OC)c(OC)c1)(c1ccccc1)N(C)C (centres undefined)	0.4	-9	nt	i	0.99&0.95	-130	114
CCSc1nnc([C@@H](N)Cc2ccccc2)o1	-1.4	-8	102	i	1.1	-13	107
Cc1cc(CN(C)C)c(OC(=O)N(C)C)cc1C	-1.7	2	98	i	1.1	nt	nt
O=C1NC(=O)N(c2ccc(Cl)cc2)C(=O)/C1=C/c1coc2ccc(O)cc2c1=O	nt	nt	94	i	1.1	nt	nt
COc1ccc(-n2c(-c3ccccc3)nc3ccccc3c2=O)cc1	nt	nt	98	i	0.99	nt	nt
CCC1(c2ccccc2)C(=O)N(COC)C(=O)N(COC)C1=O	-1.1	-11	116	i	1.2	-26	128
O=C1NC(=O)C(=Cc2ccc(Oc3ccc([N+](=O)[O-])cc3)cc2)C(=O)N1	nt	-6	96	i	1	-12	75
COc1ccc(CCn2c(O)c(/C=N/N3CCOCC3)c(=O)[nH]c2=O)cc1OC	nt	nt	99	i	0.91	nt	nt
Cc1ccc(CNC2=NCCS2)cc1	nt	nt	103	i	0.99	nt	nt

Later entries.
SMILES	GALR2 agonist	PKD1 kinase inh	RGS16-Gao	HSV replic up	HSV replic up primary fold	INS promoter inh	INS promoter inh cell count
CCCn1c(C(=O)c2ccccc2)nc2ccccc21	nt	4	60	i	0.95	36	85
CCC(=NCCCN(CC)CC)c1c(O)n(-c2ccccc2)c(=O)[nH]c1=O	-1.5	11	94	i	0.79	-14	45
CC(C)(C)c1nc(N2CCN(C(=O)c3ccco3)CC2)c2nnn(Cc3ccccc3Cl)c2n1	0.8	-2	72	i	0.61	nt	nt
Cc1c(P(=S)(c2ccccc2)c2ccccc2)[n+]2ccccc2n1C	nt	5	100	i	1.1	nt	nt
Cc1cc(C=C2C(=O)N(C)C(=S)N(C)C2=O)c(C)n1-c1ccncc1	nt	nt	96	i	1.3	nt	nt
Nc1ccc(S(=O)(=O)N2CCCCC2c2cccnc2)cc1 (centres undefined)	-1.2	1	100	i	1.1	nt	nt
CN(C)C1=NC(N(C)C)=NP(N(C)C)(N(C)C)=N1	-0.5	6	105	i	0.95	nt	nt
Cc1cc(C=O)c(C)n1CC1CCCO1 (centres undefined)	-1.3	-5	113	i	0.99	71	121
CN1/C(=C\C=C2C(=O)NC(=O)NC2=O)C(C)(C)c2ccccc21	nt	-7	81	?	nt	0	57
CCc1ccc(N2C(=O)NC(=O)/C(=C/c3ccsc3)C2=O)cc1	nt	2	91	i	1.1	29	133
C1=C(c2c[nH]c3ccccc23)CCNC1	-1.2	-8	133	i	1.1	-456	86
CN(C)P1(N(C)C)=Nc2c(c(N)nn2C)C(c2ccccc2)=N1	-1.2	-11	101	i	1.1	-40	134
COC(=O)c1cc2c(s1)=NC=NP=2(N1CCOCC1)N1CCOCC1	-0.3	-1	100	i	0.97	nt	nt
CCOC(C(=O)OCCCN(CC)CC)(c1ccccc1)c1ccccc1	-1.6	0	97	i	0.84	-18	101

Five entries from above, bar-delimited:
compound | GALR2 agonist | PKD1 kinase inh | RGS16-Gao | HSV replic up | HSV replic up primary fold | INS promoter inh | INS promoter inh cell count
CCN(C(=O)Oc1ccccc1)c1ccc(C(O)(C(=O)OC)C(F)(F)F)cc1 (centres undefined) | -0.5 | -4 | 83 | i | 1 | 40 | 93
Cc1cc([N+](=O)[O-])c2ccccc2[n+]1[O-] | nt | nt | 50 | i | 0.62 | nt | nt
Cc1cc(NCCN)nc2ccccc12 | -3.3 | 2 | 102 | nt | nt | -11 | 149
CN1/C(=C\C=C2C(=O)NC(=O)NC2=O)C(C)(C)c2ccccc21 | nt | -7 | 81 | ? | nt | 0 | 57
O=C(Cc1ccccc1)Oc1cccc(-n2cnnn2)c1 | nt | -4 | 102 | i | 0.98 | nt | nt

Bioassay records as filed in PubChem.

These rows are one share of the data. The share of hits here may be higher or lower than overall.
